# VDR inh: blocks the human vitamin D receptor; P11473; VDR-SRC2-3 peptide fluorescence polarization, 2 h; Potency, µM, without a hit: max response, negative = inhibition, actives largely listed as inhibitors; 0.93% of 400,000 active; AID 504847; active = well fitted inhibition curve with a large enough effect; inconclusive = small, poorly fitted or top-dose-only effect, or another doubt; inactive = no such curve, though single readings can be large or run the other way; also: series mostly up to about 120 µM
# Target sequence (P11473 whole entry, looked up): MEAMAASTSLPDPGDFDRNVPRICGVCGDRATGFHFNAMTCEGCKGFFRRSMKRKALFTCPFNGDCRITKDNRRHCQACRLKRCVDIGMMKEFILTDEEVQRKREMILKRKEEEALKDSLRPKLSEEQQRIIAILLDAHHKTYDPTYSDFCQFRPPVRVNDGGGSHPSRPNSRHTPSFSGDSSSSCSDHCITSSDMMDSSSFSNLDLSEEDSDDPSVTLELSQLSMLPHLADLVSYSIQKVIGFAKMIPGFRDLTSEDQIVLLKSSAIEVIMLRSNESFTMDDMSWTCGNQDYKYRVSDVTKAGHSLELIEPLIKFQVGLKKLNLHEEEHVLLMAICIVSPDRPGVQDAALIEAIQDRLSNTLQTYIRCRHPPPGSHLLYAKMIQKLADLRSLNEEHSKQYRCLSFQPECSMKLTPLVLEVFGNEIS
#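 The screen uses fluorescence polarization to detect compounds that interfere with recruitment of the SRC2-3 coactivator peptide to VDR; plates are read after 2 h at room temperature.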
# * = called active by the depositor; ? = inconclusive; & = joins results of further samples. % is scaled to controls: 0 for no effect and ±100 for the full control effect; potency is read from the fitted curve at half-maximal effect.
SMILES,VDR inh
N#CC1=C(N)Oc2cc(N)ccc2C1c1ccccc1Cl (stereo not given),-12.1%
CCCCc1nnc2c(N(C)S(=O)(=O)c3ccccc3)nc3ccccc3n12,4.6%
COc1ccc(C(c2nnnn2C(C)(C)C)N2CCN(c3nc4ccccc4s3)CC2)cc1 (stereo not given),7.7%
CSc1ncc(CN2CCN(CC=C(C)C)C(CCO)C2)cn1 (stereo not given),11.8%
O=C(COC(=O)CCC(=O)c1cccs1)Nc1ncc(Cl)cc1Cl,16.9%
COc1ccc(CCNC(=O)c2cc3c(=O)n4cccc(C)c4nc3n(Cc3ccco3)c2=N)cc1OC,-14.4%
COc1ccc(OC)c(NC(=O)CSc2nnnn2-c2ccccc2F)c1,7.0%
Cc1ccc(-n2nc3c(=O)n(C(C)C(=O)NCc4ccc(Cl)cc4)nc(C)c3c2C)cc1 (stereo not given),-0.7%
Cc1ccc(NC(=O)CSc2nc(=O)n(Cc3ccncc3)c3c2CCC3)cc1Cl,7.2%
COc1ccc(-c2nc(SCc3ccccc3)n(S(C)(=O)=O)n2)cc1,-19.4%
Cn1c2ccccc2c2c(C(=O)N3CCN(c4cccc(Cl)c4)CC3)cn(C3CCCCC3)c(=O)c21,12.8%
CCn1c(N2CCN(S(=O)(=O)c3ccccc3)CC2)nc2ccccc21,-20.8%
CC(=O)N1CCCc2ccc(NC(=O)c3ccc(C(F)(F)F)cc3)cc21,8.8%
O=C(Nc1cc(Cl)ccc1-n1cncn1)C1CC1,-9.6%
O=C(c1ccccc1)C(O)(CN1CCCCC1)c1ccccc1 (stereo not given),-1.4%
CCc1c(C)nc2nncn2c1NCc1ccc(Cl)cc1,11.9%
Cc1cc(C(=O)N2CCN(c3cccc(Cl)c3)CC2)c2c(C)nn(-c3ccccc3Cl)c2n1,-17.7%
O=C(O)CNC(=O)c1ccc(S(=O)(=O)N2CCOCC2)cc1,-8.0%
Cc1cc(C)c2c(c1)/C(=N/NC(=O)c1cc(C)oc1C)CCC2,-1.5%
COc1cc(OC)cc(C(=O)NC(=S)NNC(=O)Cc2cccs2)c1,-23.8%
CSc1cccc(NC(=O)CN(C2CCCCC2)S(C)(=O)=O)c1,-7.5%
COc1ccc(/C=C2\SC(=S)N(CCC(=O)Nc3ccccn3)C2=O)cc1OC,-11.0%
CCC(C(=O)Nc1cc(C)ccc1C)n1c(=O)c(C(F)(F)F)nc2ccccc21 (stereo not given),1.5%
Cc1ccc(C2=NN(CC(=O)NCc3ccccn3)C(=O)CC2)cc1,-3.5%
COc1ccc(NC(=O)c2ccco2)c2ccccc12,-6.9%

# Following part.
SMILES,VDR inh
CSc1n[nH]c2nc3c(c(=O)n12)C1(CCCCC1)Cc1ccccc1-3,-24.2%
Clc1nssc1=Nc1nncs1,5.62µM*
COc1cccc(CC(=O)OCC(=O)NC(Cc2ccccc2)C(C)=O)c1 (stereo not given),2.0%
CCOc1ccc(NCc2nc3ccccc3n2CCOc2ccccc2)cc1,-23.7%
Cc1ccc(C(=O)O)cc1NC(=O)CN1C(=O)C2C3c4ccccc4C(Br)(c4ccccc43)C2C1=O (stereo not given),-16.6%
CC(C)(C)C1=Nn2c(nnc2-c2ccccn2)SC1,-3.4%
Cc1cc(C)c(Cn2cnc(-c3ccc([N+](=O)[O-])cc3)c2)c(C)c1,-6.9%
CCCCc1cc(=O)oc2cc(OCC(=O)N3CCc4ccccc43)ccc12,20.6%
O=c1nc(-c2ccccc2)c2cc(Cl)ccc2[nH]1,-2.2%
O=C(C1CCCO1)N1CCN(S(=O)(=O)c2ccccc2)CC1 (stereo not given),-2.0%
C=CCN(CC=C)C(=O)COC(=O)c1n[nH]c2ccccc12,1.0%
O=C(C[C@H]1C/C=C\C[C@H](Cc2ccc(F)cc2)C(=O)O[C@@H](c2ccccc2)CNC1=O)N[C@@H](CO)Cc1ccccc1,0.9%
c1csc(-c2nn3cnnc3c3ccccc23)c1,-12.5%
CN(C)N1C(N)=C(C#N)C(c2ccc(Cl)cc2)C2=C1CCCC2=O (stereo not given),-11.3%
CC(=C1C(=O)c2ccccc2C1=O)N1CCN(CCN=CC2=C(O)CC(C)(C)CC2=O)CC1,-7.6%
CCOc1cc(C(=O)Nc2ccc(NC(C)=O)cc2)ccc1OCC(=O)N1CCCCC1,-5.2%
Cc1ccccc1-c1nn(-c2ccc(F)cc2F)cc1CNCCN(C)C,-7.1%
CC(C)CNC(=O)C(=O)NCCCN1CCOCC1,-13.3%
Cc1[nH]nc2c1C(c1ccc(OC(=O)c3ccco3)cc1)C(C#N)=C(N)O2 (stereo not given),2.2%
Cc1ccc(NS(=O)(=O)c2cccc(C(=O)NCC3CCCO3)c2)cc1 (stereo not given),-9.8%
CCCCn1c(SC(C)C(=O)NCC2CCCO2)nc2cc(C(=O)OC)ccc2c1=O (stereo not given),-21.2%
O=C(CCCc1nc(-c2ccccc2)no1)NC1CCCC1,-3.8%
CN1C=C(C(F)(F)F)C=C/C1=C(\C#N)c1nnc2n1CCCCC2,11.0%
CCN(CC)c1ccc(C2NC(=O)c3ccccc3N2)cc1 (stereo not given),-13.3%
CCC(C)(C)NC(=O)CN(C(=O)CCC(=O)Nc1nccs1)c1ccccc1C,-9.2%

# 7 entries picked at random from the list so far, as already listed:
SMILES,VDR inh
CCCCn1c(SC(C)C(=O)NCC2CCCO2)nc2cc(C(=O)OC)ccc2c1=O (stereo not given),-21.2%
CCC(C)(C)NC(=O)CN(C(=O)CCC(=O)Nc1nccs1)c1ccccc1C,-9.2%
Cc1[nH]nc2c1C(c1ccc(OC(=O)c3ccco3)cc1)C(C#N)=C(N)O2 (stereo not given),2.2%
CCN(CC)c1ccc(C2NC(=O)c3ccccc3N2)cc1 (stereo not given),-13.3%
CSc1n[nH]c2nc3c(c(=O)n12)C1(CCCCC1)Cc1ccccc1-3,-24.2%
CCCCc1cc(=O)oc2cc(OCC(=O)N3CCc4ccccc43)ccc12,20.6%
CC(C)CNC(=O)C(=O)NCCCN1CCOCC1,-13.3%

# (further entries)
SMILES,VDR inh
CCCn1cc(CN2CCCC(CNC(=O)c3ccc(F)cc3)C2)c(C)n1 (stereo not given),-1.1%
CCOc1ccc(NC(=S)N2CCCN(Cc3cc(C)ccc3C)C2)cc1,3.4%
CCc1ccc(NC(=O)[C@H](NC(=O)[C@@H]2Cc3ccccc3CN2)c2ccccc2)cc1,-13.5%
CCn1c(O)c(C2=c3ccccc3=NC2=O)c2cc(Br)ccc21,?
COc1cc(Cl)ccc1OCc1cc(C(=O)N(C)C2CC(C)(C)NC(C)(C)C2)no1,-21.6%
Clc1ccccc1CO/N=C1\CCCc2nonc21,2.2%
CC(=O)c1ccc(N2C(=O)N(Cc3ccccc3C#N)c3ccccc3S2(=O)=O)cc1,0.9%
O=C(O)C1(NS(=O)(=O)c2ccc(Cl)cc2)CCCCC1,13.2%
Cc1nn(CC(=O)NCCN2CCCCC2C)c(=O)c2cc(-c3ccccc3)nn12 (stereo not given),-23.8%
CC(=O)N1CCN(CC(=O)Nc2cc(F)ccc2C)CC1,4.4%
CCc1c(C)nc(Nc2nc(C)c3ccc(OC)cc3n2)[nH]c1=O,9.0%
O=C(/C=C/c1ccccc1)NC(=S)Nc1ccc(CN2CCOCC2)cc1,-19.6%
Cc1noc(C)c1C(=O)N1CCC[C@@]2(CCN(Cc3cc(C(F)(F)F)cc(C(F)(F)F)c3)C2)C1,?
O=C(COc1ccc(Br)cc1)NNC(=S)NCc1ccccc1,-5.2%
N#CC(=C(O)COC(=O)Cc1c[nH]c2ccccc12)c1nc2ccccc2[nH]1,-6.6%
O=C(COC(=O)Cc1cccc(C(F)(F)F)c1)NC(=O)NC1CCCC1,11.1%
Cc1ccccc1-n1c(Cn2c(=O)sc3ccccc32)nnc1SCC(=O)N1CCCC1,-1.7%
O=C(C1CC1)N1CCc2cc(Br)cc(S(=O)(=O)Nc3ccc(F)c(F)c3)c21,-8.9%
O=c1oc2c(CN3CCCCC3)c(O)ccc2c2c1CCCCC2,-12.6%
Cc1cccc(N2CCN(S(=O)(=O)c3ccc(-c4cc(C)no4)s3)CC2C)c1 (stereo not given),6.4%
COc1ccc(C(=O)NC(=O)COC(=O)C2CC2C)cc1 (stereo not given),-4.3%
CC1(C)CC(NC(=O)c2cc(Cl)ccc2Cl)CC(C)(C)N1,-10.1%
O=C(NCCc1ccccc1)Nc1ccc(Cl)cc1,-10.4%
COc1c(F)c(F)c(C(=O)Nc2ccc(NC(=O)c3ccco3)cc2)c(F)c1F,-1.2%
COc1ccc(C(=O)NC2CCSc3ccccc32)cc1S(=O)(=O)N1CCOCC1 (stereo not given),1.5%

# Of the compounds above, these contain a COOH group:
SMILES,VDR inh
O=C(O)CNC(=O)c1ccc(S(=O)(=O)N2CCOCC2)cc1,-8.0%
Cc1ccc(C(=O)O)cc1NC(=O)CN1C(=O)C2C3c4ccccc4C(Br)(c4ccccc43)C2C1=O (stereo not given),-16.6%
O=C(O)C1(NS(=O)(=O)c2ccc(Cl)cc2)CCCCC1,13.2%

# More results follow.
SMILES,VDR inh
CC(C)=NNc1ncnc2nc[nH]c12,-15.0%
O=C(C/C(=N\NC(=O)c1ccccc1Br)C(F)(F)F)c1cccs1,-18.2%
CCc1ccc(NC(=O)NCCCN2CCCC2=O)cc1,-13.0%
CCc1cccc(C)c1NC(=O)CSc1nc2ccc(N3C(=O)c4ccccc4C3=O)cc2s1,7.1%
CC(C)CCN(CCC(C)C)CC(O)Cn1c2ccccc2c(=O)c2ccccc21 (stereo not given),-18.7%
CN(C)c1cccc(-c2nnc(SCCCC#N)o2)c1,-13.3%
CC(=O)c1ccc(NC(=O)Cn2c(-n3nc(C)cc3C)nc(C)c(C)c2=O)cc1,9.3%
Cc1ccc(C2CC(C(F)(F)F)n3ncc(C(=O)NCc4ccco4)c3N2)cc1 (stereo not given),3.7%
CCn1cc(CCC(=O)NCc2cccc(OC)c2OC)c2ccccc21,-9.5%
CCCCNC(=S)N(C)/N=C/c1c(F)c(F)c(F)c(F)c1F,-1.6%
O=C(NCc1ccccn1)c1cc(-n2cnnc2)ccc1Cl,1.5%
CCOC(=O)c1c(C(C)(C)C)oc2ccc(OCC#N)cc12,12.3%
Cc1cc(C)cc(NC(=O)Cn2nnc(-c3nc(-c4ccncc4)no3)c2N)c1,1.0%
C=CCOc1c2ccc(C(=O)NCc3ccc(C)cc3)cc2nn1C,-15.0%
CCC(C)(C)NC(=O)C(c1ccncc1)N(Cc1cccs1)C(=O)Cn1nnc2ccccc21 (stereo not given),3.8%
COCC(C)NC(=O)c1cc2cccc([N+](=O)[O-])c2[nH]1 (stereo not given),-3.4%
Cc1cnc(CNc2cc(-c3cccc(NS(C)(=O)=O)c3)ncn2)cn1,-26.9%
Cc1ccc(S(=O)(=O)Nc2cccc(C(=O)NCC3(N4CCCCC4)CCCCC3)c2)cc1F,-19.1%
CCOC(=O)Cc1cnc(NC(=O)c2ccccc2)s1,5.1%
COc1ccc(Cl)cc1NC(=O)c1c(NCc2ccc(C)o2)sc2c1CCCCC2,-1.3%
COC(=O)C(C)n1nnc2sc(-c3ccccc3)cc2c1=O (stereo not given),2.4%&1.8%
COc1ccc(-c2noc(CN(C)C(=O)c3ccoc3C)n2)cc1,?
Cc1ccc(S(=O)(=O)N(CC(=O)Nc2cccc([N+](=O)[O-])c2)Cc2ccc(Cl)cc2)cc1,-5.4%
Cc1ccc(CNc2ncnc3cc(Cl)ccc23)o1,-10.1%
CCOC(=O)C1CCN(c2ncnc3c2c(-c2ccccc2)cn3-c2ccc(Cl)cc2)CC1,-1.9%

# Continuation:
SMILES,VDR inh
O=C(NC1CCCCC1)c1cc(Cl)ccc1[N+](=O)[O-],-9.2%
Cc1ccc(S(=O)(=O)N2CC(C)N(S(C)(=O)=O)C2)cc1 (stereo not given),-3.3%
c1ccc2c(CN3CCCCC3)csc2c1,-1.5%
CC(C)C(=O)N1CCN(c2ccccc2NC(=O)COc2ccc(C3CCCCC3)cc2)CC1,7.5%
Cc1cc(C(=O)OCC(=O)N2CCC(c3ccccc3)=N2)ccc1[N+](=O)[O-],-3.6%
O=C(Nc1ccccc1)N1CCN(C(=O)c2nsc3ccccc23)CC1,9.5%
C=CCOc1cccc(C2c3c(oc4ccc(F)cc4c3=O)C(=O)N2CCCN2CCOCC2)c1 (stereo not given),-13.3%
Cc1ccc(COc2ccc(/C=N/NC(=O)CN3CCCCC3)cc2)cc1,-9.7%
CCC12CN3CC(CC)(CN(C1)C3c1c[nH]c3ccccc13)C2=O (stereo not given),-16.6%
Cc1ccccc1NC(=S)N(Cc1ccco1)C(C)c1ccccn1 (stereo not given),-1.4%
Cc1nc(Nc2ccc(Cl)cc2)c(C#N)c(=O)[nH]1,-11.5%
COc1cccc(-c2nn3c(=O)cc(CN4CCN(S(=O)(=O)c5ccc(C)cc5)CC4)nc3s2)c1,16.9%
Cc1ccc(OCC(=O)Nc2ccc3nc(Nc4cccc(Cl)c4)cc(C)c3c2)cc1,9.7%
CC(C)N1CCc2c(sc(NC(=O)CN3C(=O)c4ccccc4C3=O)c2C(N)=O)C1,7.8%
O=C(N[C@H](CO)Cc1ccccc1)c1ccco1,3.1%
CC(=O)N1CCOc2ccc(S(=O)(=O)N3CCC(C(=O)Nc4ccc(C)c(C)c4)CC3)cc21,-22.2%
C=CC[C@H](CC(=O)NCCO)C(=O)N[C@@H](C)COC(=O)[C@@H](CC=C)CC(=O)OC(C)(C)C,1.6%
COc1cc(CCC(=O)Nc2nnc(C)s2)cc(OC)c1OC,9.8%
Cc1nc2ccccc2n1C1CC(=O)N(N(C)C)C1=O (stereo not given),2.9%
CCOC(=O)C1CCN(C(c2cccc(F)c2)c2sc3nc(C)nn3c2O)CC1 (stereo not given),11.7%
CC1=CCc2c(cc3oc(C)cc(=O)c3c2O)OC1,-19.9%
Cc1ccc(C)c(Nc2ncnc3c2cnn3-c2ccc(F)cc2)c1,8.4%

# Source: PubChem BioAssay (National Center for Advancing Translational Sciences (NCATS))

# Only part of the results is shown. The share of hits here may be higher or lower than overall.
